Bioassay records: PubChem BioAssay, National Center for Advancing Translational Sciences (NCATS)
gsp ag: agonists of gsp mutant (McCune-Albright syndrome); gsp mutant cells, cAMP HTRF, 30 min; control for the full effect not named in the record; Potency, µM (doses to about 76.9 µM), inactives show at the highest dose activation (cAMP increase), hits mostly activators; 0.13% of 340,000 active; active = well fitted activation curve with a large enough effect; inconclusive = small, poorly fitted or top-dose-only effect, or another doubt; inactive = no such curve, though single readings can be large or run the other way; cell line not stated here;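 further: phosphodiesterase inhibitor Ro 20-1724 added with compounds to block cAMP breakdown; potency means the concentration at half of the fitted maximal effect; nearly all actives have a fitted effect of over 60% in size; about a fifth of the inactives were tested at one dose only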
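Cells stably selected in G418 were plated at 2000/well, grown 16-24 hr, then given compounds in DMSO with the PDE inhibitor […] (300 uM solution added) for 30 min at 37C; cAMP was read by HTRF.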
PINK1 modulator: PINK1 expression modulation. PINK1 immunofluorescence, high-content cytometry, 24 h. 0.2% of 410,000 active. AID 624263. Potency, µM (doses to about 76.6 µM), inactives show at the highest dose activation (PINK1 increase), hits mostly activators; active = well fitted activation curve with a large enough effect; inconclusive = small, poorly fitted or top-dose-only effect; inactive = flat fitted curve, though single readings scatter; cell line not stated here;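 further: potency means the concentration at half of the fitted maximal effect; % of control where 0% means no effect; nearly all actives have a fitted effect of over 65% in size; a mitochondrial uncoupler was the plate control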
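Fluorescence from anti-PINK1 antibody, together with nuclear and cell stains, was scanned on a laser-scanning cytometer. Before staining, stable-line cells were incubated 24 hours with compounds at 5 concentrations; primary antibody 12 h at 10 degrees C.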
Menin MLL FP FL: menin-MLL binding inhibition, fluorescein peptide. Fluorescence polarization, fluorescein-MLL peptide displacement from menin. FP activity change, % at 61.4 µM. 290,000 tested, under 10 active. AID 1766; inconclusive = falling polarisation curve, or a change in total fluorescence; inactive = total fluorescence flat and polarisation flat or rising; no compound was filed as active; the % refers to the polarisation; negative = inhibition;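 further: % of control where 0% means no effect; inhibitors lower the polarisation; unlabelled MLL peptide was the positive control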
ClpP mod: qHTS Assay for Activators of ClpP; purified B. subtilis ClpP, FRET peptide cleavage, 20 min; AID 651965, 2013; 1.9% of 340,000 active; ATP-dependent Clp protease proteolytic subunit (Bacillus subtilis (strain 168)), P80244; Potency, µM (highest dose often 57.5 µM), for the others: at the top dose activity change, negative = active; active = well fitted falling curve with a large enough effect; inconclusive = small, poorly fitted or top-dose-only effect; inactive = no such curve, though single readings can be large or run the other way; further: potency means the concentration at half of the fitted maximal effect; the source files actives as falling curves though it sought activators and does not explain the sign; nearly all actives have a fitted effect of over 65% in size; many hits overshoot -100%
Target sequence (P80244 whole entry, looked up): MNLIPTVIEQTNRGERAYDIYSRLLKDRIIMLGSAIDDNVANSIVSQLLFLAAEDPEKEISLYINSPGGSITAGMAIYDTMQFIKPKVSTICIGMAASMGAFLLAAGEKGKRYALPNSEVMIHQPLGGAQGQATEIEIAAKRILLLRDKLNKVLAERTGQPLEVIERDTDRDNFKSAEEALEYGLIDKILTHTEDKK
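Buffer: 100 mM Tris/HCl pH8, 100 mM KCl, 0.05% low protease BSA, 2.5% glycerol, 0.01% Tween-20. ClpP 10 microg/mL final; 20 min RT; delta FRET normalized to ADEP and DMSO controls.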
gsp antag: antagonists of gsp mutant (McCune-Albright syndrome) | gsp-mutant cells, cAMP HTRF, 30 min; control for the full effect not named in the record | Potency, µM (highest dose often 76.9 µM), for inactives: top-dose activity change, negative = inhibition, actives largely listed as inhibitors | 0.4% of 340,000 active; active = falling curve of any shape with a large fitted effect; inconclusive = falling curve, mostly with a smaller effect; inactive = flat or rising curve; cell line not stated here;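 further: intracellular cAMP measured with PDE inhibitor Ro 20-1724 present during compound exposure; potency means the concentration at half of the fitted maximal effect; on the % scale 0 is the no-effect control and ±100 the full control effect; nearly all actives have a fitted effect of over 65% in size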
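Cells in G418 medium, seeded 16-24 h, 37C; buffer exchange to DPBS + 1 mM CaCl2, 0.5 mM MgCl2, 0.05% BSA; cpds in DMSO + […] (300 uM stock), 30 min 37C; HTRF cAMP detection.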
Sfp PPTase inh: Sfp phosphopantetheinyl transferase inhibition; Q9F4F7; Biochemical Sfp PPTase activity, qHTS; Potency, µM, without a hit: max response, negative = inhibition, most hits filed as inhibitors; 3.5% of 310,000 active; active means well fitted inhibition curve with a large enough effect; inconclusive means small, poorly fitted or top-dose-only effect, or another doubt; inactive means no such curve, though single readings can be large or run the other way;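 further: the enzyme is Sfp with the accession as filed and its product quenches rhodamine fluorescence; potency means the concentration at half of the fitted maximal effect; 0% = enzyme reaction without inhibitor and -100% = no enzyme wells; top concentration of the series not given in the record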
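Sfp 15 nM + cpd, 15 min RT; start w/ rhodamine-CoA 5 uM, BHQ-2-YbbR 12.5 uM (final); 50 mM Hepes pH 7.6, 10 mM MgCl2, 0.01% NP-40, 0.01% BSA; read 525/598 nm at 0 and 30 min.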
D2 ag: human D2 receptor agonism in beta-arrestin assay. P14416. DiscoveRx PathHunter D2 beta-arrestin, luminescence, 90 min; 100% = 57 uM dopamine signal. activation, % (test concentration not listed). 0.084% of 360,000 active. AID 624465; in the data active = activation above about 40%; inconclusive = about 15% to 40%; inactive = below about 15%; further: compound concentration not given in the record; the text of the record calls up to 30% inactive
Target sequence (P14416 whole entry, looked up): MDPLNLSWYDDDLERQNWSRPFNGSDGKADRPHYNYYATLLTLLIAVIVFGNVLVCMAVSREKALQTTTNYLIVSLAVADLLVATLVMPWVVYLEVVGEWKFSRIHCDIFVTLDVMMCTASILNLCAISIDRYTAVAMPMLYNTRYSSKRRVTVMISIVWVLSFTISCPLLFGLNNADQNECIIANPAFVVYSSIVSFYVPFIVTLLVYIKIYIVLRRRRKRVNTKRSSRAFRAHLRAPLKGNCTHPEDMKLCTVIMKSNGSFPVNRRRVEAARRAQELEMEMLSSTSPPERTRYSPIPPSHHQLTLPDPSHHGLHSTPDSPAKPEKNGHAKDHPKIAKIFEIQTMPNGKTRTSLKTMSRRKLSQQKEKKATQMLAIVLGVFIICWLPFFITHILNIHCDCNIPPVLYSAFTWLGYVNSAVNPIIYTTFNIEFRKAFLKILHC
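DiscoveRx PathHunter D2 beta-arrestin cells (2,100/well) attached overnight, then compound-stimulated 90 min at 37 C in HBSS/10 mM HEPES/0.1% Tween-20 buffer; beta-galactosidase complementation read by luminescence after 1 h at ambient temperature. Dopamine 57 uM final (EC100) as control.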
Active calls of the source: *; u = inconclusive; x = no result given; [ ] = another dose, or the depositor's remark.

SMILES	gsp ag	PINK1 modulator	Menin MLL FP FL	ClpP mod	gsp antag	Sfp PPTase inh	D2 ag
CC(C)C[C@H](NC(=O)C1CC(=O)N(c2ccc3c(c2)OCCO3)C1)C(=O)N1CCCCC1 (stereo partly specified)	-23%	0.3%	-0.4	-1.4%	4%	16%	-0.9
CCOC(=O)CSc1nnc([C@H](CC(C)C)NC(=O)OC(C)(C)C)o1	1%	1.9%	4.4	-1.3%	-6%[15.4 µM]	15%	0.3
CSCCC(C(=O)N1C[C@]2(C)C[C@H]1CC(C)(C)C2)N1C(=O)c2ccccc2C1=O (stereo partly specified)	-1%	0.2%	2.4	-1.0%	-9%	-4%	-5.6
Cc1ccc(CN2CC(N3CCN(Cc4cccc(C)c4)CC3)CS2(=O)=O)cc1 (stereo unspecified)	x	0.7%	x	0.4%	x	x	2.8
COC(=O)c1cccc(NC(=O)/C(=C\c2ccccc2)NC(=O)c2ccccc2Cl)c1	-16%	x	0.8	4.6%	4%	17%	-0.2
COc1ccc(NC(=O)c2ccc(-c3ccc(C)c4ccccc34)o2)cc1	7%	2.1%	0.2	u	-16%	u	-0.8
CC1(C)Oc2ccc(C(=O)NN)cc2NC1=O	-32%[inhibitor]	3.1%	0.3	-1.2%	9%	-7%	-2.0
CC1CCN(C(=O)CSc2ccc(-c3ccccc3)nn2)CC1	-3%[15.4 µM]	-0.7%	2.3	-27%	-3%	12%	-1.0
CC(=O)Nc1ccc(S(=O)(=O)Oc2ccc(C=O)cc2)cc1	12%	2.9%	-2.4	-2.5%	-5%	7%	-0.3
CN(C)c1cc[n+](/C(C(=S)Nc2ccc(SC(F)F)cc2)=C(/[O-])c2ccccc2)cc1	-37%[inhibitor]	3.3%	-0.1	1.7%	-6%	u	-3.8
FC(F)(F)c1cc(NC2CCCCC2)ccn1	u	1.4%	-3.4	1.4%	1%	6%	-0.1
C[C@H](CO)N1C[C@H](C)[C@@H](CN(C)C(=O)Nc2ccc(C(F)(F)F)cc2)Oc2ccc(NS(=O)(=O)c3cn(C)cn3)cc2C1=O	x	0.7%	x	-6.8%	5%	x	-2.3
CC(C)c1ccc(C2(C)NC(=O)N(CC(=O)NCC3COc4ccccc4O3)C2=O)cc1 (stereo unspecified)	1%	0.7%	x	-1.7%	-9%	x	-0.9
COc1cccc(CN2CCNC(=O)C2CC(=O)NC2Cc3ccccc3C2)c1 (stereo unspecified)	5%	0.8%	-4.2	-1.1%	5%	7%	-3.2
COC(=O)c1cccc(NC(=O)CSc2nnc(-c3ccco3)o2)c1	9%	0.0%	-2.6	x	4%	-20%	1.9
CCC(C)NC(=O)C1CCN(S(=O)(=O)N2CCC3(CC2)OCCO3)CC1 (stereo unspecified)	u	-1.5%	2.1	1.9%	7%	17%	5.9
Cc1cccc(C(=O)OCC(=O)NC(=O)NC2CCCCC2)c1	-2%	u	x	-0.9%	x	x	0.8
COc1cc(C(=O)NCc2cn3ccsc3n2)cc(OC)c1OC	u	u	x	0.6%	14%	x	-3.0
CCCc1ccc2oc(C(=O)N3CCC(N4CCCC(O)C4)CC3)c(C)c2c1 (stereo unspecified)	-10%	2.2%	x	-0.6%	18%	0%	10
COC(=O)CSc1nnc2n1C(C)(C)Cc1ccccc1-2	-11%	-12%[38.3 µM]	7.2	-2.0%	-9%	-4%	0.3
CCNC(=O)C1(C)CCN(C(=O)c2c(F)cccc2F)C1 (stereo unspecified)	x	1.2%	x	3.3%	x	x	-2.3
Cc1ccc(NC(=O)CSc2nnc(COc3ccccc3F)n2N)cc1S(=O)(=O)N1CCOCC1	-15%	-0.9%	x	1.2%	-32%	x	2.2
CC(=O)NC(Cc1ccc(C)cc1)C(=O)NC1CCN(C(=O)c2ccc([N+](=O)[O-])cc2)CC1 (stereo unspecified)	u	-1.6%	-0.9	-2.2%	8%	-1%	3.8
O=C(O)c1c(C(=O)N2N=C3/C(=C/c4ccccc4)CCCC3C2c2ccccc2)cccc1[N+](=O)[O-] (stereo unspecified)	15%[15.4 µM]	2.7%	2.2	0.2%	-8%	-26%	-2.1
COCCCn1c(=S)[nH]c2ccc(N3CCOCC3)cc2c1=O	27%	-1.4%	-1.8	8.3%	-9%	-8%	-3.6
Cc1cc(-c2ccc(Cl)cc2Cl)c(C#N)c(=O)[nH]1	26%	-0.6%	8.0	-14%	7%	2%	-1.5
CCN(CC)CCn1c(NCc2ccc(C)o2)nc2ccccc21	-12%[15.4 µM]	-0.5%	0.7	1.4%	0%	4%	-8.5
N#CC(C(=O)NC1CC1)c1nc2ccccc2nc1N1CCN(C/C=C/c2ccccc2)CC1 (stereo unspecified)	-5%	-1.3%	u	2.4%	1%	12%	-11
COc1ccc(Cc2nc3ccc(C(=O)NCCSC)cc3o2)cc1	-19%	-2.5%	x	0.8%	u	x	0.3
CCc1ccc2[nH]c(=O)c(C(c3nnnn3Cc3ccc(OC)cc3)N3CCOCC3)cc2c1 (stereo unspecified)	15%	-3.6%[38.3 µM]	-2.4	-26%	-4%	7%	-2.7
On1nnc2ccc3ccccc3c21	0%[15.4 µM]	2.0%	0.9	-7.5%	-5%	10%	-1.2
CC(C)c1[nH]nc2c1C(c1cccs1)C(C#N)=C(N)O2 (stereo unspecified)	12%	2.4%[38.3 µM]	2.2	-3.9%	-16%	11%	-3.9
Clc1ccc(-c2nnc3n2CCCC3)cc1	u	4.2%[38.3 µM]	-5.5	1.2%	1%	13%	-3.4
COc1cccc(CC(=O)OC(C)C(=O)NCc2ccc3c(c2)OCO3)c1 (stereo unspecified)	15%[15.4 µM]	-2.1%	x	x	5%	x	-3.8
O=C(NCc1ccccc1)c1ccc2nc(-c3ccco3)c(-c3ccco3)nc2c1	21%	-0.5%	u	-2.3%	-1%	7.1µM*	4.9
CCCCN(C(=O)c1cc2c(s1)CCC2)c1c(N)n(CCCC)c(=O)[nH]c1=O	-7%[15.4 µM]	-4.1%	x	x	0%	x	-1.4
COCC(=O)N1CCC2(CC1)CCN(c1ccncc1)CC2	x	-0.7%	-1.2	x	x	40%[activator]	x
CCOC(=O)c1c[nH]c2c(Cl)ccc(Cl)c2c1=O	19%	-1.3%	-0.5	-11%	-3%	8%	-0.6
CO/N=C(\c1nonc1N)N1CCN(c2ccc([N+](=O)[O-])cc2Cl)CC1	-4%	-0.7%	2.4	0.7%	-13%	-21%	-0.2
Cn1ccc2c(-c3cccnc3)cc3c(c21)C1CCC3C1 (stereo unspecified)	x	2.0%	x	-25%	x	x	-6.7
CCOc1ccc(-c2cc(C(=O)NN=C3CCN(C)CC3)[nH]n2)cc1	11%[15.4 µM]	0.4%	0.7	x	4%	24%	0.1
CCCCCCCCCCCCN1[C@@H](CC(=O)OC)c2cc(F)cc(F)c2S1(=O)=O	26%	3.9%	x	-4.2%	0%	x	-2.5
NS(=O)(=O)c1ccc(NNC(=O)c2ccc(F)cc2F)cc1	7%[15.4 µM]	2.9%	-1.7	-1.5%	5%	15%	3.1
Cc1cccc(NC(=O)CCc2ccc(N3C(N)=NC(N)=NC3(C)C)cc2)c1	-17%	0.0%	x	-2.5%	x	x	-3.1
CCOC(=O)c1sc(NC(=O)C2CC2)nc1C	12%	0.9%	1.3	2.0%	6%	-6%	-1.2
COc1ccc(C(=O)OCC(=O)c2ccc(Cl)s2)c(OC)c1OC	6%	-1.4%	x	-0.8%	-1%	x	-2.2
CC1=[N+](C)N(c2ccccc2)C(=O)C1N=Cc1c(Cl)cccc1Cl (stereo unspecified)	-9%	2.6%	0.6	-0.7%	0%	25%	-0.7
O=C(COC(=O)CSc1ccc(Cl)cc1)Nc1ccccc1	15%	-2.0%	x	-1.1%	13%	x	-2.8
COc1ccccc1CNc1nc(NCc2cccc(OC)c2OC)c2sccc2n1	x	u	x	u	x	x	-3.3
Nc1cc(C(F)(F)F)ccc1Nc1ccccc1	-11%	1.1%	3.9	-23%	3%	7%	3.3

The list continues:
SMILES	gsp ag	PINK1 modulator	Menin MLL FP FL	ClpP mod	gsp antag	Sfp PPTase inh	D2 ag
COC(=O)C1=C(N)Oc2cc(C)[nH]c(=O)c2C1c1cccnc1 (stereo unspecified)	-23%	-0.6%	1.7	-1.7%	13%	19%	-4.2
COc1ccccc1C(=O)Nc1c(C)n(C)n(-c2ccccc2)c1=O	-18%	-0.8%[38.3 µM]	-3.0	2.0%	3%	14%	-2.2
O=C(O)CN1C(=O)/C(=C/C=C/c2ccccc2)SC1=S	-7%	-0.6%	u	2.1%	u	-43%	-0.6
CCCCC1CC(=O)NC1(C(=O)OCC)C(=O)OCC (stereo unspecified)	8%[15.4 µM]	0.3%	x	-0.1%	2%	x	-0.3
NS(=O)(=O)c1ccc(NC(=O)CCC2CCCCC2)cc1	-13%	-0.4%[38.3 µM]	5.6	-0.4%	10%	11%	0.7
N/C(Cc1cccs1)=N\OC(=O)COc1ccccc1	5%	4.3%	11	-1.8%	4%[15.4 µM]	13%	-3.3
CCOc1ccc2nc(SCc3cccc(C)c3)nc(C)c2c1	7%[15.4 µM]	2.9%	0.1	-15%	2%	-10%	-0.8
O=C(NCc1nc2ccccc2[nH]1)C1CCCCC1	-37%[inhibitor]	1.9%	0.5	0.1%	5%	11%	-3.7
O=C1CCC([N+](=O)[O-])C(c2ccc(C(F)(F)F)cc2)N1 (stereo unspecified)	0%[15.4 µM]	-1.1%	x	-0.8%	17%	x	-2.3
N#C/C(=C\c1ccco1)C(=O)Nc1cccc2ncccc12	-54%[inhibitor]	-0.6%	-1.7	-0.2%	-9%	18%	-1.8
O=C(NNC(=O)c1ccc2nonc2c1)Nc1ccc(Cl)cc1	5%	-1.2%	1.2	x	-4%	10%	-2.2
COCCN(Cc1ccccc1)C(=O)C1CCN(C(=O)Nc2ccccc2)CC1	4%	0.9%	x	-1.3%	-1%	x	2.4
O=C(CCc1nc2ccccc2c(=O)[nH]1)Nc1cc(Cl)ccc1N1CCCCC1	-26%	5.8%	x	1.1%	8%	x	-4.7
CSc1ccc(C(=O)Nc2cc(S(=O)(=O)N3CCOCC3)ccc2N2CCOCC2)cc1[N+](=O)[O-]	u	1.4%	x	0.5%	-5%	x	-1.7
